Sa growth inh: inhibitors of Staphylococcus aureus growth at 42 °C; S. aureus RN4220 growth, OD600, 20 h; active compounds read low; relative growth, % (test concentration not listed); 170,000 tested, 0.53% active;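 active = growth at 42 °C up to 50% and 20 or more points under that at 30 °C, or under 10% at both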;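 note: 300 nL library stock went into each well; scaled to the means of positive and negative controls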
HCMV UL50-53 inh: cytomegalovirus nuclear egress complex inhibition. 190,000 tested, 0.15% active. HTRF UL50-UL53 interaction, normalized percent inhibition. AID 1918969. inhibition, % (no concentration beside the values);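 active = both replicates at 50% or more, plus weaker picks with an unusually low signal ratio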;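 note: stock transfer was 100 nL into about 20 µL; 0% = negative control wells and 100% = wells with untagged competitor protein; inactives centre near -12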
GIV Gai3 FP: GIV-Galpha-i interaction inhibition | Galpha-i3/FITC-GIV peptide fluorescence polarization, 90 min; active compounds read low; scaled: aluminum fluoride 0%, vehicle 100% | P08753 | 210,000 tested, 0.42% active | percent of control (FP), % (test concentration not listed);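 active = replicate mean at 85% of control or lower, very high polarization wells dropped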;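 note: lower values mean more displacement of the GIV peptide from Galpha-i3; wells of about 15 µL received 100 nL stock; the first replicate is given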
Target sequence (P08753 whole entry, looked up): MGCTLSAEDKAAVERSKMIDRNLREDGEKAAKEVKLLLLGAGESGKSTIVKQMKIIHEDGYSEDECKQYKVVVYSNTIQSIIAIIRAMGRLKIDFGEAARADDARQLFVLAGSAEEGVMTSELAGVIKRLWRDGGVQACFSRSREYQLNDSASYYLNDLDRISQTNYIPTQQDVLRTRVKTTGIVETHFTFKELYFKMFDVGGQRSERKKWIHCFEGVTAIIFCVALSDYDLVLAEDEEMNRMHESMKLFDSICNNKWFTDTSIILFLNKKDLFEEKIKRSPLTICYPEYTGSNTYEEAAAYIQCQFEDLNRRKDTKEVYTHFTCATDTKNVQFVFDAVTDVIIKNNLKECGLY
Sa growth inh second temp: recorded beside Sa growth inh, whose call it bears; relative growth, %; measured here: growth at 30 °C;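 optical density after 20 h as mean of two plates; 100% = untreated growth and lower means inhibition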
* hit, by the source's call; / = no result given; & = joins results of further samples.

SMILES | Sa growth inh | Sa growth inh second temp | HCMV UL50-53 inh | GIV Gai3 FP
COC(=O)C1CCN(C(=O)C2c3ccccc3Oc3ccccc32)CC1 | 95 | 87 | -7 | 100
O=P1(c2ccccc2)C=Cn2c1cc1c2CCCC1 (stereo not drawn) | 117 | 102 | 6 | /
CN1CCN(c2ccc(NS(=O)(=O)c3ccc(N4C(=O)CCS4(=O)=O)cc3)cc2)CC1 | / | / | -41 | 111
COc1ccc(NC(=O)Cn2c3ncccc3c(=O)n2-c2ccccc2)cc1 | / | / | -12 | 103
COc1cc(C2CC(=O)Oc3c2c(=O)n(C)c2ccccc32)ccc1O (stereo not drawn) | 89 | 88 | -2 | 108
COC(=O)c1ccc(C(=O)OC)c(NC(=O)c2c(C)oc3ccc(OCc4ccccc4)cc23)c1 | / | / | -7 | 103
Cc1ccc(CN(C)CC(=O)NC(C)C23CC4CC(CC(C4)C2)C3)o1 (stereo not drawn) | 63 | 58 | 1 | /
COc1ccc(Nc2cccc(Cl)c2)c(C(=O)O)c1 | 141 | 29 | -6 | 102
O=C(NCc1noc(COc2ccccc2)n1)c1ccc(-c2noc(C3CC3)n2)cc1 | / | / | -6 | 102
CCNc1nc2n(c(=O)n1)CCN2CC | 116 | 81 | -7 | 108
O=S(=O)(c1ccc(-n2nnc3ccccc32)nc1)N1CCCCC1 | 118 | 97 | 10 | /
CC(C)CCNC(=O)C1CCN(Cc2cccc(OCc3ccccc3)c2)CC1 | 97 | 71 | -12 | /
COC(=O)c1[nH]c2ccc(C)cc2c1NC(=O)CN1CCOCC1 | / | / | -19 | 104
O=C1NC(=S)NC(=O)C1=Cc1cccc(O)c1Cl | 119 | 89 | -11 | 77*
CCOC(=O)c1c(NC(=O)c2cc(S(N)(=O)=O)c(Cl)cc2Cl)sc(C(=O)N(CC)CC)c1C | / | / | -23 | 104
CC1(C)CCC2=C(O1)c1ccccc1C(=O)C2=O | / | / | 110&72&57 | 54*
CCOC(=O)C1=C(C)N=c2s/c(=C/c3ccc(OC(C)=O)cc3)c(=O)n2C1c1ccccc1Cl (stereo not drawn) | / | / | -4 | 96
C/C(=C(/C#N)P(=NN=Nc1ccccc1)(N1CCOCC1)N1CCOCC1)N1CCCC1 | 81 | 95 | -6 | /
CN(C)c1nc(C(=O)Nc2ccccc2)nc(N(C)C)n1 | 77 | 83 | -4 | 97
Cc1c(C(=O)OCc2ccccc2)[nH]c2c1C(=O)CC(c1ccc(C(C)(C)C)cc1)C2 (stereo not drawn) | 119 | 92 | -4 | 107
O=C(Nc1cc(Oc2ccc(F)cc2)cc(Oc2ccc(F)cc2)c1)c1sc2ccccc2c1Cl | / | / | -16 | 98
Cc1ccc(Cn2cc(S(=O)(=O)c3ccc(Cl)cc3)c(=O)c3cc4c(cc32)OCO4)cc1 | 111 | 86 | 0 | 109
C=C1CC[C@H](O)C/C1=C/C=C1\CCCC2(C)C1CCC2C(C)CCCC(C)C (stereo partly drawn) | 88 | 87 | -28 | /
C1=C(c2cccs2)CC(c2cccs2)=NN=C1c1cccs1 | 126 | 89 | / | 98
O=C(OCC1CCCCC1)c1n[nH]c2ccccc12 | 75 | 86 | -10 | /
(list continues)
SMILES | Sa growth inh | Sa growth inh second temp | HCMV UL50-53 inh | GIV Gai3 FP
Nn1c(COc2ccccc2F)nnc1SCCN1C(=O)c2ccccc2C1=O | 105 | 93 | -15 | /
Cc1nc(-c2cc(C(=O)O)n(C)c2)cs1 | 91 | 90 | -11 | /
Cc1cc(C)n2nc(SCCN3C(=O)c4ccccc4S3(=O)=O)nc2n1 | 81 | 88 | -21 | /
COc1ccc(C2C3=C(CC(c4ccc(Cl)cc4)CC3=O)Nc3onc(C)c32)cc1O (stereo not drawn) | / | / | -12 | 104
Cc1ccc(C(CNC(=O)c2ccc(Br)o2)N(C)C)o1 (stereo not drawn) | / | / | -12 | 107
Cc1ccc(-c2nc(CS(=O)(=O)CC(=O)NC3CCCCCC3)c(C)o2)cc1 | 103 | 85 | -18 | 101
CC(=O)NC(=O)/C(C#N)=N\O | 100 | 92 | -39 | 105
CN(C)c1ccc(C2SCCN2C(=O)c2cc3cc(Br)ccc3oc2=O)cc1 (stereo not drawn) | / | / | -19 | 102
CC(C)N1CCN(C(=O)c2ccc(F)cc2)CC1 | 100 | 87 | -11 | /
Cc1oc(-n2c(C)ccc2C)c(C#N)c1C(C)O (stereo not drawn) | 99 | 90 | -1 | /
Cc1nc2ccccc2n(CC(=O)Nc2ccccc2)c1=O | / | / | -38 | 104
Cc1c(NC(=O)CCN2C(=O)/C(=C/c3c(Cl)cccc3Cl)SC2=S)c(=O)n(-c2ccccc2)n1C | / | / | -28 | 103
CCCCNC(=O)c1sc(SCC(=O)OCC)nc1N | 92 | 103 | -18 | 116
CC(C)c1nn2c(=O)cc(COC(=O)c3cccc(NC(=O)c4cccs4)c3)nc2s1 | 103 | 89 | / | 102
Cc1ccc(NC(=O)Cn2c(-c3ccc4c(c3)OCO4)cn(-c3ccccc3)c2=O)cc1C | 107 | 92 | -10 | 101
CCSCCOC(=O)C1=C(C)NC2=C(C(=O)CC(c3ccc(OC)cc3)C2)C1c1ccc2c(c1)OCO2 (stereo not drawn) | / | / | -20 | 105
COc1cccc(C(=O)NCCc2csc3nc(-c4ccccc4C)nn23)c1OC | / | / | -20 | 98
CCOc1ccccc1Nc1nc(-c2cccc(Cl)c2)c2c(n1)-c1ccccc1OC2 | 87 | 83 | -3 | 100
Cc1cc(C)n2nc(SCCCC(=O)N3CCOCC3)nc2n1 | 90 | 94 | 0 | /
Cc1ccc(C(=O)Nc2nc3ccc(S(N)(=O)=O)cc3s2)cc1C | 109 | 72 | -24 | 99&101
COC(=O)c1ccc(Cl)cc1NC(=O)N1CCN(c2nc3ccccc3n2Cc2ccccc2)CC1 | / | / | -5 | 112
O=C(O)Cn1nc(N2CCN(c3ccccc3)CC2)ccc1=O | 103 | 91 | -61 | 103
COc1cc2c(=O)n(Cc3ccc(C(=O)NC(C)C)cc3)c(=O)n(CC(N)=O)c2cc1OC | / | / | -27 | 105
O=c1oc(-c2ccccc2)nc2ccc(O)cc12 | 116 | 74 | -19 | 106
COC(=O)c1c(C)[nH]c(C(=O)C(C)N2CCc3ccccc3C2)c1C (stereo not drawn) | 75 | 88 | -39 | /

Among those listed so far, these contain an NH in an aromatic ring.
SMILES | Sa growth inh | Sa growth inh second temp | HCMV UL50-53 inh | GIV Gai3 FP
COC(=O)c1[nH]c2ccc(C)cc2c1NC(=O)CN1CCOCC1 | / | / | -19 | 104
Cc1c(C(=O)OCc2ccccc2)[nH]c2c1C(=O)CC(c1ccc(C(C)(C)C)cc1)C2 (stereo not drawn) | 119 | 92 | -4 | 107
O=C(OCC1CCCCC1)c1n[nH]c2ccccc12 | 75 | 86 | -10 | /
COC(=O)c1c(C)[nH]c(C(=O)C(C)N2CCc3ccccc3C2)c1C (stereo not drawn) | 75 | 88 | -39 | /

Structures listed above printed as active in GIV Gai3 FP.
structure	Sa growth inh	Sa growth inh second temp	GIV Gai3 FP
O=C1NC(=S)NC(=O)C1=Cc1cccc(O)c1Cl	119	89	77*
CC1(C)CCC2=C(O1)c1ccccc1C(=O)C2=O	/	/	54*

Back to the main list; the 2 compounds before the break are reprinted first.
SMILES | Sa growth inh | Sa growth inh second temp | HCMV UL50-53 inh | GIV Gai3 FP
O=c1oc(-c2ccccc2)nc2ccc(O)cc12 | 116 | 74 | -19 | 106
COC(=O)c1c(C)[nH]c(C(=O)C(C)N2CCc3ccccc3C2)c1C (stereo not drawn) | 75 | 88 | -39 | /
O=C(NN1CCOCC1)c1ccc(=O)n(Cc2ccccc2)n1 | 84 | 92 | -17 | /
CC(C)CNC(=O)CSc1ccc(S(=O)(=O)N2CCN(C)CC2)cn1 | 89 | 82 | -13 | /
c1ccc2c(c1)COC(CN1CCCC1)OC2 | 95 | 93 | 5 | 108
Cc1nn(C)cc1C(C(=O)NC1CCCCC1)N(CCc1ccccc1)C(=O)c1cnccn1 (stereo not drawn) | 97 | 86 | -14 | 100
Nc1ncnc2cccc(F)c12 | 99 | 78 | -36 | 102
O=C(COC(=O)C12CC3CC(CC(C3)C1)C2)Nc1ccc(Cl)cc1 | 98 | 95 | -21 | /
NS(=O)(=O)c1ccc(NC(=S)N2CCC(Cc3ccccc3)CC2)cc1 | 92 | 80 | / | 104
CCCC(=O)Nc1c(C(=O)OCC)[nH]c2ccc(C)cc12 | / | / | -32 | 92
COc1ccc(-c2nc3sc(CCNC(=O)Cc4ccccc4)c(C)n3n2)cc1 | 88 | 102 | / | 102
Nc1c(C(=O)Nc2ccccc2)sc2nc3c(cc12)CCCCC3 | 110 | 100 | / | 103
Cc1ccc(NC(=O)CSc2nc3ccccc3c(=O)n2CC2COc3ccccc3O2)cc1 (stereo not drawn) | 118 | 88 | / | 98&117
O=C(CSc1nnc2ccccn12)Nc1ccccc1Cl | 98 | 100 | 12 | /
COc1ccc(N2CC(NC(=O)C(=O)c3c(C)[nH]c4ccccc34)CC2=O)cc1 (stereo not drawn) | 106 | 95 | / | 105
Cc1ccc2nc(SCC(=O)c3ccc(Cl)s3)[nH]c2c1 | 95 | 65 | -32 | /
N#Cc1ccc(C(=O)NCC(c2ccco2)N2CCCC2)cc1 (stereo not drawn) | 85 | 93 | -10 | /
COc1ccc(C2c3c(oc4ccccc4c3=O)C(=O)N2Cc2ccc3c(c2)OCO3)cc1 (stereo not drawn) | 98 | 97 | -6 | 96
CC(C)(C)c1cc(NCc2ccccn2)n2ncc(-c3ccccc3)c2n1 | / | / | -16 | 110
O=C(NCc1ccc2c(c1)OCO2)c1cc(=O)c2ccccc2o1 | 94 | 88 | -16 | 98
COC(=O)NCC(c1cccnc1)N1CCN(c2ccc(F)cc2)CC1 (stereo not drawn) | 112 | 89 | -31 | 105
Cc1cc2oc(=O)n(C)c2cc1NC(=O)c1cccc(F)c1 | / | / | -6 | 108
C=CCNc1oc(-c2ccc(Cl)cc2)nc1S(=O)(=O)c1ccccc1 | / | / | 9 | 104
Cc1ccccc1Cn1c(CN2CCCC(C)C2)nc2c1c(=O)n(C)c(=O)n2C (stereo not drawn) | 99 | 86 | -27 | 106
CCOC(=O)N1CCN(C(=O)c2cc3c(s2)-c2ccc(Cl)cc2S(=O)(=O)C3)CC1 | 104 | 88 | -19 | 104
CCCC(O)c1nc2ccccc2n1CCCOc1ccc(C)cc1C (stereo not drawn) | / | / | -23 | 108
COc1cccc(CNC(=O)C2CCN(S(=O)(=O)c3cn(C)cn3)CC2)c1 | 77 | 93 | / | 96

A draw from above in order of formula weight, high to low.
SMILES | Sa growth inh | Sa growth inh second temp | HCMV UL50-53 inh | GIV Gai3 FP
COc1ccc(-c2nc3sc(CCNC(=O)Cc4ccccc4)c(C)n3n2)cc1 | 88 | 102 | / | 102
Cc1ccccc1Cn1c(CN2CCCC(C)C2)nc2c1c(=O)n(C)c(=O)n2C (stereo not drawn) | 99 | 86 | -27 | 106
COC(=O)NCC(c1cccnc1)N1CCN(c2ccc(F)cc2)CC1 (stereo not drawn) | 112 | 89 | -31 | 105

Later entries
SMILES | Sa growth inh | Sa growth inh second temp | HCMV UL50-53 inh | GIV Gai3 FP
Cc1cc(=O)[nH]c(Nc2ccc(C(=O)O)cc2)n1 | / | / | -32 | 106
CC(C)(C)c1cc(C(C)(C)C)c(O)c(S(N)(=O)=O)c1 | 146 | 89 | -16 | 105
CC1=C(C#N)C(c2sccc2C)C2=C(CCCC2=O)N1 (stereo not drawn) | 110 | 90 | -17 | 94
CCOc1ccc(OCC)c(NC(=O)C2CCN(S(=O)(=O)c3ccc4c(c3)CC(C)N4C(C)=O)CC2)c1 (stereo not drawn) | 100 | 91 | / | 101
COCCCNC(=O)CN(C)S(=O)(=O)c1ccc2c(c1)c(=O)n(C)c(=O)n2C | / | / | -19 | 101
Cc1ccc(NC(=O)CSc2nc3ccc(NC(=O)CCc4ccccc4)cc3s2)c(C)c1 | 101 | 84 | -27 | 101
Cc1ccccc1NC(=O)Nc1sc2nc3n(c(=O)c2c1C)CCC(C)CC3 (stereo not drawn) | 81 | 90 | / | 103
Clc1ccc2nc(-c3ccccc3)c(NCc3ccco3)n2c1 | 105 | 89 | -26 | 98
COc1ccc(CN2CCCN(CC(=O)Nc3cc(C)ccc3C)S2(=O)=O)cc1 | 98 | 89 | / | 98
C[n+]1c(CF)sc2ccccc21 | 23 | 0 | -23 | /
CCOC(=O)N1CCN(C(=O)c2ccc3c(c2)N(CC)CCS3)CC1 | 102 | 92 | 12 | 98
COc1ccccc1Nc1ccc(N)cc1 | 57 | 6 | -43 | /

Screening data deposited in PubChem by ICCB-Longwood Screening Facility, Harvard Medical School.
